High-throughput results as filed in PubChem.
T cruzi repl = T. cruzi replication inhibition. T. cruzi beta-gal in NIH3T3, luminescence, 90 h. inhibition, % (concentration not given with the values). hit rate 1.4% among 300,000. AID 1885;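 active = mean inhibition across valid replicates above about 55%, limit read from the data; inconclusive = mean below that limit but half or more replicates reach it; inactive = mean below it, under half of replicates reach it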;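 also: signal also drops with host cell toxicity which is not excluded here; 0% = plate median of DMSO wells and 100% = zero luminescence signal; higher percent means less beta-gal luminescence so fewer parasites; stock transfer was 50 nL into about 50 µL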
A1 inh = inhibitors of the anti-apoptotic protein A1, read as caspase activation | MEF A1-2A-BIM cells, Caspase-Glo 3/7 luminescence, 3 h; percent of clofoctol response, vehicle zero | caspase activation, % (no concentration beside the values) | hit rate 0.066% among 330,000 | AID 2462;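 active = over half of replicate activation scores above 10%, or exactly half above 10 with the replicate mean above 10; inconclusive = replicate mean below 10 yet half the replicates above 10; inactive = over half of replicates below 10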;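 also: wells of about 30 µL received 50 nL stock; many hits fall short of the cut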
UCH37 inh = inhibitors of human deubiquitinating enzyme UCH37; inhibition, % (test concentration not listed); Q9Y5K5; purified proteasome/UCH37, Ub-AMC cleavage fluorescence; hit rate 0.33% among 330,000;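 active = mean of two replicates above 20%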;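 also: 0% = compound-free wells with enzyme and 100% = wells lacking proteasome; stock transfer was 100 nL into about 20 µL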
Target sequence (Q9Y5K5 whole entry, looked up): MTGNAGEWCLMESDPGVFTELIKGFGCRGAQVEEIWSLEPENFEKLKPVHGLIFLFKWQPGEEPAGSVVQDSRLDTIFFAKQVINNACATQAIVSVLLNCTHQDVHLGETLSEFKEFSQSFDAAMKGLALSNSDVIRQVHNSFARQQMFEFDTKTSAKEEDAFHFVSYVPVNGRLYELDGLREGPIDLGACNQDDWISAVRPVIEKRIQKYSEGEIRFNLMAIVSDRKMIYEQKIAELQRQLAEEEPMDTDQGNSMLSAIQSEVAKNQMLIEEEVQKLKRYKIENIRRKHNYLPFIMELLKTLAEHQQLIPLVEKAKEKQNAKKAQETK
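assay system = human UCH37 enzyme supplied as purified proteasome complex | amount = proteasome at 0.15 nM in the dispensed enzyme solution | schedule = 30 min compound-proteasome preincubation then 25 min substrate reaction, room temperature | measured by = fluorescence, ex 355 nm, em 460 nm | benchmarks = no-proteasome wells (full inhibition) and compound-free wells (no inhibition)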
LANA-H2B inh = blocks KSHV LANA binding to histone H2A/H2B; Q9QR71; cell-free LANA-H2A/H2B peptide, fluorescence polarization; inhibition, % (no concentration beside the values); hit rate 0.6% among 320,000; AID 2629; in the data active = inhibition mostly above about 10%, no sharp cut-off; inactive = mostly below about 6.7%;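 also: stock transfer was 7.5 nL into about 10 µL; 0% = median of vehicle wells and 100% = median of positive control wells; one replicate is shown; the record names a cut of 25% in any replicate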
Beta2AR agonist = human beta-2 adrenergic receptor agonism by FAP | hit rate 0.43% among 340,000 | AID 504454 | Am2.2-beta2AR cells, FAP receptor internalization, flow cytometry; reference of the scale not given here | response, % (no concentration beside the values);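 active = response above a set limit, near 3 SD of response in nonfluorescent compounds, cut at about 42% in these data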;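 also: stock transfer was 100 nL into about 11 µL; a reference agonist was the positive control; negative values mostly stem from fluorescent compounds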
Target sequence (P07550 whole entry, looked up): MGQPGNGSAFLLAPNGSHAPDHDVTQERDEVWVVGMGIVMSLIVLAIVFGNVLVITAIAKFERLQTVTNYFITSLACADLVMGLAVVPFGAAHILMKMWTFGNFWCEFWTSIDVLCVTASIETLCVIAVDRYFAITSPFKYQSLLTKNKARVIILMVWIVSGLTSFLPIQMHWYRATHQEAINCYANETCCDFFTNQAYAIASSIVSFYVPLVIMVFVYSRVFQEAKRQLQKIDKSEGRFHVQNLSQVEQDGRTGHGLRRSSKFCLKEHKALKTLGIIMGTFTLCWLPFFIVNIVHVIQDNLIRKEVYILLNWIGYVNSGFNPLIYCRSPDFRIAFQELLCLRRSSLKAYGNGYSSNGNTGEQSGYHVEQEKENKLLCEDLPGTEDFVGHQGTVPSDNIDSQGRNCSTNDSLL
Beta cell apopt = blocks beta cell apoptosis; AID 435005; protection from apoptosis, % (test concentration not listed); INS-1E cytokine-induced death, ATP luminescence, 48 h; percent of positive-control rescue, neutral wells zero; hit rate 0.8% among 300,000;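 active = all replicates at 75% or more, or half of them and the mean; inconclusive = half reach 75% but not the mean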;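 also: 0% = cytokine-treated negative control wells and 100% = positive control rescue; higher means more ATP so stronger rescue from cytokine killing; wells of about 40 µL received 100 nL stock; the first replicate is given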
RanGTP-Imp inh = disruptors of Ran-importin-beta complex formation – biochemical, FRET, CFP-Ran, YFP-importin-beta, homogeneous, primary screen | cell-free CFP-Ran/YFP-importin-beta FRET ratio | inhibition, % (concentration not given with the values) | hit rate 1.1% among 300,000 | AID 2216;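 active = most replicates above 15%; inconclusive = exactly half above 15%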;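 also: 0% = DMSO wells and 100% = Ran loaded with GDP instead of GTP; wells of about 40 µL received 100 nL stock; the first replicate is given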
Calb FLC = affects C. albicans growth with fluconazole. AID 1979. growth inhibition, % (concentration not given with the values). hit rate 0.57% among 300,000. C. albicans CaCi-2 (fluconazole-resistant clinical isolate) + fluconazole, Alamar Blue growth, 48 h;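 active = most replicates above 75%; inconclusive = exactly half above 75%; inactive = most below 75%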;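 also: all wells also contain fluconazole at 8 µg/ml as a sub-toxic cotreatment; 0% = median of DMSO wells and 100% = median of geldanamycin control wells; wells of about 8 µL received 7.5 nL stock; the first replicate is given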
Starred values were filed as active, the others as inactive.

Sample of the layout (2 entries):
Results for CCOC(=O)C1CCN(S(=O)(=O)C(F)(F)c2nc3ccccc3s2)CC1 ?
T cruzi repl: -8.0; A1 inh: inconclusive; UCH37 inh: 2.4; LANA-H2B inh: 3.1; Beta2AR agonist: 4.3; Beta cell apopt: -2.1; RanGTP-Imp inh: 8.6; Calb FLC: -17.7

What do the screens show for `Cc1ccc(S(C)(=O)=NC(=O)NC(=O)c2c(F)cccc2Cl)cc1` (configuration not stated)?
T cruzi repl: -35.1; A1 inh: -0.7; UCH37 inh: 5.6; LANA-H2B inh: 1.4; Beta2AR agonist: -0.3; Beta cell apopt: 0.1; RanGTP-Imp inh: 4.7; Calb FLC: 10.5

The listing, previewed entries included:
Results for CCOC(=O)C1CCN(S(=O)(=O)C(F)(F)c2nc3ccccc3s2)CC1 ?
T cruzi repl: -8.0; A1 inh: inconclusive; UCH37 inh: 2.4; LANA-H2B inh: 3.1; Beta2AR agonist: 4.3; Beta cell apopt: -2.1; RanGTP-Imp inh: 8.6; Calb FLC: -17.7

What do the screens show for `Cc1ccc(S(C)(=O)=NC(=O)NC(=O)c2c(F)cccc2Cl)cc1` (configuration not stated)?
T cruzi repl: -35.1; A1 inh: -0.7; UCH37 inh: 5.6; LANA-H2B inh: 1.4; Beta2AR agonist: -0.3; Beta cell apopt: 0.1; RanGTP-Imp inh: 4.7; Calb FLC: 10.5

What do the screens show for `Cc1ccc(S(=O)(=O)Oc2ccc(/C=N/NC(=O)c3nn(C)cc3Cl)cc2)cc1`?
T cruzi repl: 11.5; A1 inh: -0.2; LANA-H2B inh: 1.3; Beta2AR agonist: -6.4; RanGTP-Imp inh: 1.1; Calb FLC: -4.1

Results for CCC1(CC)NC(=O)N(CC(=O)OCC(=O)Nc2ccccc2OC(F)F)C1=O ?
A1 inh: 0.4; UCH37 inh: 3.4; LANA-H2B inh: 1.0; Beta2AR agonist: 12.6; Beta cell apopt: -3.8

Results for CC1c2ccccc2SC(CCCN(C)C)c2ccccc21 (configuration not stated) ?
T cruzi repl: 54.7*; A1 inh: 0.5; UCH37 inh: 2.4; LANA-H2B inh: -2.3; Beta2AR agonist: 10.6; Beta cell apopt: 3.3; RanGTP-Imp inh: -1.0; Calb FLC: -9.0

Results for Cc1ccc(SCC(=O)OCC(=O)NC2(C#N)CCCCC2)cc1 ?
T cruzi repl: -12.1; A1 inh: 0.8; UCH37 inh: 2.2; LANA-H2B inh: -5.6; Beta2AR agonist: 2.4; Beta cell apopt: -3.3; RanGTP-Imp inh: inconclusive; Calb FLC: 2.4

How did CCCC(=O)Nc1nc2n(n1)C(c1ccccc1)CC(=O)N2 (configuration not stated) do in these assays?
T cruzi repl: -5.4; A1 inh: 0.1; UCH37 inh: 0.4; LANA-H2B inh: -0.4; Beta2AR agonist: 2.1; Beta cell apopt: -3.5; RanGTP-Imp inh: -2.1; Calb FLC: 2.9

What do the screens show for `COC(=O)c1ccc(CN2CCN(Cc3ccc(C(=O)OC)o3)CC2)o1`?
T cruzi repl: 7.2; A1 inh: -0.2; UCH37 inh: 2.5; LANA-H2B inh: 5.5; Beta2AR agonist: 1.5; Beta cell apopt: -3.4; RanGTP-Imp inh: -2.9; Calb FLC: -8.0

What do the screens show for `N#CCCN1CCN(S(=O)(=O)c2cc(Cl)ccc2Cl)CC1`?
T cruzi repl: -14.1; A1 inh: -0.3; UCH37 inh: 0.3; LANA-H2B inh: 2.6; Beta2AR agonist: -4.8; Beta cell apopt: -5.2; RanGTP-Imp inh: 5.5; Calb FLC: -2.6

How did COc1cc2c(cc1NC(=O)Nc1ccc(F)cc1)oc1ccccc12 do in these assays?
T cruzi repl: 60.0*; A1 inh: 1.2; UCH37 inh: -34.3; LANA-H2B inh: 1.5; Beta2AR agonist: 17.3; Beta cell apopt: 8.8; RanGTP-Imp inh: 3.9; Calb FLC: 0.5

How did CCOC(=O)CSc1nc(-c2ccccc2)cc(C(F)(F)F)n1 do in these assays?
T cruzi repl: -3.3; A1 inh: -0.5; UCH37 inh: 3.9; LANA-H2B inh: -4.6; Beta2AR agonist: 7.9; Beta cell apopt: 1.2; RanGTP-Imp inh: 0.3; Calb FLC: -3.0

What do the screens show for `CC(c1ccon1)N(C)C(=O)CCc1nnc(CCCCc2ccccc2)o1` (configuration not stated)?
T cruzi repl: 5.4; A1 inh: -0.3; UCH37 inh: -0.2; LANA-H2B inh: 1.8; Beta2AR agonist: 9.5; RanGTP-Imp inh: 2.6; Calb FLC: -9.0

How did Cc1ccc(C(C)C)c(OCCNCCc2ccccc2)c1 do in these assays?
T cruzi repl: 47.6; A1 inh: 0.1; UCH37 inh: 4.3; LANA-H2B inh: -3.9; Beta2AR agonist: 25.6; Beta cell apopt: 35.9; RanGTP-Imp inh: 2.6; Calb FLC: 47.6

What do the screens show for `O=C(CSc1nc2ccccc2s1)N/N=C/c1cc([N+](=O)[O-])ccc1O`?
T cruzi repl: 3.0; A1 inh: -0.5; LANA-H2B inh: -1.5; Beta2AR agonist: 1.6; Beta cell apopt: -2.4; RanGTP-Imp inh: -5.8; Calb FLC: 7.0

Results for CCOc1ccc(C(=O)CCC(=O)NCC(=O)OCc2ccccc2)cc1OCC ?
T cruzi repl: 0.9; A1 inh: 0.7; UCH37 inh: -0.4; LANA-H2B inh: 4.5; Beta2AR agonist: 3.1; Beta cell apopt: -3.5; RanGTP-Imp inh: -2.5; Calb FLC: -1.0

How did COc1cc([N+](=O)[O-])ccc1NC(=S)NC(=O)CC(C)(C)C do in these assays?
T cruzi repl: 12.4; A1 inh: 0.3; UCH37 inh: 0.3; LANA-H2B inh: 4.2; Beta2AR agonist: -2.4; Beta cell apopt: 4.4; RanGTP-Imp inh: 2.1; Calb FLC: 6.8

How did CN(C)S(=O)(=O)c1cccc(NC(=O)COC(=O)c2cc(=O)[nH]c(=O)[nH]2)c1 do in these assays?
T cruzi repl: -11.7; A1 inh: -0.8; UCH37 inh: 1.4; LANA-H2B inh: 5.5; Beta2AR agonist: 0.1; Beta cell apopt: -3.6; RanGTP-Imp inh: -0.2; Calb FLC: -8.1

How did O=C(Cc1sc(Nc2ccccc2)nc1-c1ccccc1)NCc1ccccn1 do in these assays?
T cruzi repl: 4.2; A1 inh: 1.0; UCH37 inh: 0.3; LANA-H2B inh: -1.8; Beta2AR agonist: 10.9; Beta cell apopt: 3.5; RanGTP-Imp inh: -13.0; Calb FLC: -55.5

Results for O=C(CN1CCOCC1)Nc1ccc(Oc2ccccc2)cc1 ?
T cruzi repl: -3.6; A1 inh: -0.3; UCH37 inh: 1.3; LANA-H2B inh: -2.5; Beta2AR agonist: -22.0; RanGTP-Imp inh: 2.8; Calb FLC: 6.4

Results for Cn1c(N)c(C(=O)COC(=O)c2cc(C(F)(F)F)nc3ccccc23)c(=O)n(Cc2ccccc2)c1=O ?
A1 inh: -0.1; UCH37 inh: 2.8; LANA-H2B inh: -2.5; Beta cell apopt: 0.3

Results for Cc1cccc(-c2nsc(SCC(=O)NCc3ccc4c(c3)OCO4)n2)c1 ?
T cruzi repl: 10.9; A1 inh: -0.9; UCH37 inh: -0.8; LANA-H2B inh: 2.4; Beta2AR agonist: -1.1; Beta cell apopt: 0.0; RanGTP-Imp inh: -0.4; Calb FLC: -53.1

What do the screens show for `O=C1c2ccccc2C(=O)N1CCCCCCc1ccccc1`?
A1 inh: 0.5; UCH37 inh: 1.0; LANA-H2B inh: -12.8; Beta2AR agonist: -0.1; Beta cell apopt: -4.8

Results for CCN(CC)CCN(C(=O)c1ccccc1OC)c1nc2ccc(F)cc2s1 ?
T cruzi repl: 45.8; A1 inh: 1.1; UCH37 inh: 2.8; LANA-H2B inh: -4.9; Beta2AR agonist: 15.0; Beta cell apopt: 6.4; RanGTP-Imp inh: 1.2; Calb FLC: -3.2

Results for O=C(CCc1ccccc1)NNC(=S)NC(=O)c1ccccc1 ?
T cruzi repl: -23.6; A1 inh: -0.9; UCH37 inh: 3.7; LANA-H2B inh: 2.6; Beta2AR agonist: -2.0; Beta cell apopt: 3.4; RanGTP-Imp inh: -1.1; Calb FLC: 110.1*

Results for O=C(c1ccc(Cl)c(S(=O)(=O)N2CCOCC2)c1)N1CCc2ccccc2C1 ?
A1 inh: 0.3; UCH37 inh: 3.0; LANA-H2B inh: 5.4; Beta2AR agonist: -1.2; Beta cell apopt: -12.2

How did COc1ccc(/C=N/NC(N)=S)cc1 do in these assays?
T cruzi repl: -0.9; A1 inh: -0.1; LANA-H2B inh: 3.3; Beta2AR agonist: 2.4; Beta cell apopt: -9.1; RanGTP-Imp inh: 0.3; Calb FLC: 3.8

Results for C=CCN(Cc1ccc(Cl)s1)C(=O)c1ccc(F)c(S(=O)(=O)N2CCOCC2)c1 ?
A1 inh: 0.4; UCH37 inh: 0.7; LANA-H2B inh: -3.1; Beta2AR agonist: -1.8; Beta cell apopt: 2.6

What do the screens show for `CCOC(=O)c1c(/N=C/N(C)C)sc(/C=N/Nc2ccccc2)c1-c1ccc(Cl)cc1`?
T cruzi repl: 41.0; A1 inh: 0.4; LANA-H2B inh: 0.8; Beta2AR agonist: 2.5; Beta cell apopt: 4.5; RanGTP-Imp inh: -38.7; Calb FLC: -7.2

What do the screens show for `O=c1[nH]c(C2CCCN(S(=O)(=O)c3ccccc3)C2)nc2c1nnn2Cc1ccc2c(c1)OCCO2` (configuration not stated)?
T cruzi repl: -0.1; A1 inh: -0.1; UCH37 inh: 4.1; LANA-H2B inh: 1.3; Beta2AR agonist: 11.2; Beta cell apopt: 2.9; RanGTP-Imp inh: 0.0; Calb FLC: -4.3

What do the screens show for `COc1ccc(-c2csc(NC(=O)c3ccccc3OC)c2C(=O)O)cc1OC`?
T cruzi repl: 7.9; A1 inh: 0.5; UCH37 inh: -0.4; LANA-H2B inh: -5.0; Beta2AR agonist: 8.0; Beta cell apopt: 2.6; RanGTP-Imp inh: -1.4; Calb FLC: -6.8

What do the screens show for `NCCCCCC(=O)N/N=C/c1coc2ccccc2c1=O`?
T cruzi repl: -25.1; A1 inh: -0.5; LANA-H2B inh: 2.0; Beta2AR agonist: 4.2; Beta cell apopt: -3.7; RanGTP-Imp inh: inconclusive; Calb FLC: -2.5

What do the screens show for `CCn1c(C)[n+](CC)c2ccc(S(=O)(=O)N(C)C)cc21`?
T cruzi repl: 2.1; A1 inh: 0.2; UCH37 inh: 3.8; LANA-H2B inh: -0.1; Beta2AR agonist: -0.3; Beta cell apopt: -1.7; RanGTP-Imp inh: -1.2; Calb FLC: -24.0

What do the screens show for `CCOC(=O)N1CCN(S(=O)(=O)N2CCCC(C(=O)NCCc3ccc(C)cc3)C2)CC1` (configuration not stated)?
T cruzi repl: -1.6; A1 inh: -0.5; UCH37 inh: 4.8; LANA-H2B inh: -4.4; Beta2AR agonist: 1.4; Beta cell apopt: -2.4; RanGTP-Imp inh: -2.6; Calb FLC: 2.7

How did Cc1ccc(-c2csc(-c3ccncc3)n2)cc1 do in these assays?
T cruzi repl: 4.2; A1 inh: 0.0; UCH37 inh: -1.8; LANA-H2B inh: -3.1; Beta2AR agonist: -1.7; Beta cell apopt: -0.5; RanGTP-Imp inh: -5.7; Calb FLC: -24.2
